VCAM-1 up: enhancers of VCAM-1 display on endothelial cells, cell-based, plate reader, pooled HUVEC, TNFa stimulus (AID 455); hit rate 0.2% among 10,000; augmentation, % at 5 µM; HUVEC TNFa-induced VCAM-1 immunofluorescence, plate reader; numbers were filed only for top-ranked candidate wells;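 active = a compound raising TNF-alpha-driven VCAM-1 surface staining, with its hit status upheld on visual or statistical review; inactive = the rest, including hits rejected on review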;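 note: 0% = TNFa with vehicle and 100% = strongest image-checked hit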
26S disassembly: inhibitors of ATP-driven 26S proteasome dissociation, primary screen, biochemical, bead-based flow cytometry, GFP-tagged proteasome; anti-FLAG beads, GFP-proteasome disassembly; inhibition of disassembly, % (no concentration beside the values); hit rate 0.2% among 24,000; AID 751, 2007;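 active = above 40%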;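 note: plate controls were ATP control with full disassembly for no effect and ATP-gamma-S intact proteasomes for full effect; higher percent means more bead fluorescence retained so stronger block of disassembly; stock transfer was 100 nL into about 10 µL; wells with too few beads may also be inconclusive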
Numbers without * were called inactive; i = inactive; nt = not tested or not shown.

SMILES	VCAM-1 up	26S disassembly
Cn1cc(CCC(=O)N2CCC3(CC2)OCCO3)c2ccccc21	nt	0.6
CCC(=O)Nc1cc(C(=O)N2CCC3(CC2)OCCO3)ccc1S(=O)(=O)c1ccc(C)cc1	nt	0.6
Cn1c(=O)cc(SCC(=O)N2CCC3(CC2)OCCO3)c2ccccc21	nt	-3.4
CC(=O)c1c(C)[nH]c(C(=O)N2CCC3(CC2)OCCO3)c1C	nt	-0.9
CCOC(=O)c1cc2c(cn1)[nH]c1ccccc12	i	1.8
COc1ccc(-n2c(C)nc3cc(C(=O)N4CCC5(CC4)OCCO5)ccc32)cc1	nt	-1.3
CCCC(=O)OCC[N+](C)(C)C	i	-0.6
CN1CCN(c2c[nH]c(=O)[nH]c2=O)CC1	i	-0.4
C[C@@]1(CO)[C@H](O)CC[C@@]2(C)[C@H]1CC[C@H]1C[C@@H]3C[C@@]12CC[C@]3(O)CO	i	1.1
COc1ccc(CCNC(=O)c2c(N)n(CCN3CCOCC3)c3nc4ccccc4nc23)cc1	i	1.2
CC(C)CC12CN3CCN(CC(C3)/C1=N/O)C2	i	-1.0
COc1ccc(C(CC(=O)N2CCC3(CC2)OCCO3)NS(=O)(=O)c2ccc(F)cc2)cc1 (stereo not given)	nt	0.3

Three compounds from above, ordered by formula weight, smallest number first.
SMILES	VCAM-1 up	26S disassembly
CC(C)CC12CN3CCN(CC(C3)/C1=N/O)C2	i	-1.0
CCOC(=O)c1cc2c(cn1)[nH]c1ccccc12	i	1.8
CCC(=O)Nc1cc(C(=O)N2CCC3(CC2)OCCO3)ccc1S(=O)(=O)c1ccc(C)cc1	nt	0.6

The listing continues:
SMILES	VCAM-1 up	26S disassembly
CCC(=NCC1CCCO1)c1c(O)n(Cc2ccccc2)c(=O)[nH]c1=O (stereo not given)	i	0.3
O=C(C1CC(=O)N(c2ccc(F)c(Cl)c2)C1)N1CCC2(CC1)OCCO2 (stereo not given)	nt	-0.9
CCN1CCN(C(=O)COc2cc(=O)n(CC)c3ccccc23)CC1	i	-0.9
COC(=O)c1c(C)n(Cc2ccc3c(c2)OCO3)c2ccc(O)cc12	i	1.3
Nc1ccc(C2(c3ccc(N)cc3)CN3CCC2CC3)cc1	i	-3.9
C1=C(c2c[nH]c3ccccc23)CCNC1	nt	28
CCC(COC(=O)c1cc(OC)c(OC)c(OC)c1)(c1ccccc1)N(C)C (stereo not given)	i	-1.0
CCOc1ccc(-n2c(O)c(C=NCCN3CCNCC3)c(=O)[nH]c2=O)cc1	i	-0.5
CS(=O)(=O)N1CCCC(C(=O)N2CCC3(CC2)OCCO3)C1 (stereo not given)	nt	1.2
O=C1CC(c2ccccc2)CC(O)=C1C=NCCN1CCN(C(=O)Cc2ccccc2)CC1 (stereo not given)	i	-0.7
O=C(c1cc(=O)[nH]c2ccc(Br)cc12)N1CCC2(CC1)OCCO2	nt	-1.3
CCN1CCN(Cc2cc(Br)cc(OC)c2O)CC1	i	-2.3

An excerpt of these results, bar-delimited.
SMILES | VCAM-1 up | 26S disassembly
Cn1cc(CCC(=O)N2CCC3(CC2)OCCO3)c2ccccc21 | nt | 0.6
CCC(=O)Nc1cc(C(=O)N2CCC3(CC2)OCCO3)ccc1S(=O)(=O)c1ccc(C)cc1 | nt | 0.6
Cn1c(=O)cc(SCC(=O)N2CCC3(CC2)OCCO3)c2ccccc21 | nt | -3.4
CC(=O)c1c(C)[nH]c(C(=O)N2CCC3(CC2)OCCO3)c1C | nt | -0.9
CCOC(=O)c1cc2c(cn1)[nH]c1ccccc12 | i | 1.8
COc1ccc(-n2c(C)nc3cc(C(=O)N4CCC5(CC4)OCCO5)ccc32)cc1 | nt | -1.3
CCCC(=O)OCC[N+](C)(C)C | i | -0.6
CN1CCN(c2c[nH]c(=O)[nH]c2=O)CC1 | i | -0.4
C[C@@]1(CO)[C@H](O)CC[C@@]2(C)[C@H]1CC[C@H]1C[C@@H]3C[C@@]12CC[C@]3(O)CO | i | 1.1
COc1ccc(CCNC(=O)c2c(N)n(CCN3CCOCC3)c3nc4ccccc4nc23)cc1 | i | 1.2
CC(C)CC12CN3CCN(CC(C3)/C1=N/O)C2 | i | -1.0
COc1ccc(C(CC(=O)N2CCC3(CC2)OCCO3)NS(=O)(=O)c2ccc(F)cc2)cc1 (stereo not given) | nt | 0.3
CCC(=NCC1CCCO1)c1c(O)n(Cc2ccccc2)c(=O)[nH]c1=O (stereo not given) | i | 0.3
O=C(C1CC(=O)N(c2ccc(F)c(Cl)c2)C1)N1CCC2(CC1)OCCO2 (stereo not given) | nt | -0.9
CCN1CCN(C(=O)COc2cc(=O)n(CC)c3ccccc23)CC1 | i | -0.9
COC(=O)c1c(C)n(Cc2ccc3c(c2)OCO3)c2ccc(O)cc12 | i | 1.3
Nc1ccc(C2(c3ccc(N)cc3)CN3CCC2CC3)cc1 | i | -3.9
C1=C(c2c[nH]c3ccccc23)CCNC1 | nt | 28
CCC(COC(=O)c1cc(OC)c(OC)c(OC)c1)(c1ccccc1)N(C)C (stereo not given) | i | -1.0
CCOc1ccc(-n2c(O)c(C=NCCN3CCNCC3)c(=O)[nH]c2=O)cc1 | i | -0.5
CS(=O)(=O)N1CCCC(C(=O)N2CCC3(CC2)OCCO3)C1 (stereo not given) | nt | 1.2
O=C1CC(c2ccccc2)CC(O)=C1C=NCCN1CCN(C(=O)Cc2ccccc2)CC1 (stereo not given) | i | -0.7

Next part:
SMILES	VCAM-1 up	26S disassembly
CCCN1CCC2(CC1)NC(CO)(CO)CO2	nt	-4.9
CCCCCCOc1ccc(CN2CCN(C)CC2)cc1	i	-0.6
O=C(Cn1cc(C(=O)c2ccccc2)c2ccccc21)NCc1ccco1	i	2.5
Cc1nc2cc(-c3cccc(F)c3)nn2c(C)c1CCC(=O)N1CCC2(CC1)OCCO2	nt	-0.4
COC(=O)C1C2c3ccccc3OC1(C)N=c1s/c(=C/c3cn(C)nc3C)c(=O)n12 (stereo not given)	nt	-0.5
c1ccc2c3c([nH]c2c1)CNCC3	i	6.0
CCOC(=O)c1c(C)c(C(=O)N2CCC3(CC2)OCCO3)c(C)n1CC	nt	3.6
O=C(CN1C2CCC1CC(O)(c1cccnc1)C2)Nc1ccc2c(c1)OCO2 (stereo not given)	i	-0.2
Cc1ccc(CCN2CC(C(=O)N3CCC4(CC3)OCCO4)CC2=O)cc1 (stereo not given)	nt	-2.2
CCOC(=O)/C(CCCN(CC)CC)=N\O	nt	-1.1
COc1ccccc1CN1CCN(C(=O)COc2cccc(C)c2)CC1	nt	0.1
CCOC(=O)C1C(=O)NC23CCCC2C1c1ccccc1O3 (stereo not given)	nt	-0.8
CCC(C)NC(=O)c1c(N)n(CC2CCCO2)c2nc3ccccc3nc12 (stereo not given)	i	3.4
COc1ccc(Nc2ncc(C(=O)N3CCC4(CC3)OCCO4)c3ccccc23)cc1	nt	-0.9
COC(=O)CC1(Cc2ccccc2)C(=O)NC(=O)NC1=O	i	-0.8
COC(=O)N(c1ccc(OC)cc1)P1(=S)OCCC(C)O1 (stereo not given)	nt	1.1
CN(C)c1cc(N)c2c(n1)CCC2 (tested in a mixture with another compound)	i	1.0
Cc1ccc(S(=O)(=O)Cc2ccc(C(=O)N3CCC4(CC3)OCCO4)o2)cc1	i	-0.6
N#Cc1ccccc1Cn1cc(C(=O)C2CC2)c2ccccc21	i	-0.5
CCN1CC=C(c2c[nH]c3ccccc23)CC1	nt	-0.5
CCOc1ccc(C2SCC(=O)Nc3c2c(=O)[nH]n3C2CCCCCC2)cc1 (stereo not given)	i	-3.2
COP(=O)(OC)C(O)C(Cl)(Cl)Cl (stereo not given)	i	0.5
Cc1oc2ccc(OC(=O)N(C)C)cc2c1C(=O)OC(C)C	i	0.1
CCOP(=S)(OCC)c1ccc(N(C)C)cc1	i	1.2
O=C(O)CCCc1ccc(N(CCCl)CCCl)cc1	i	-0.2
O=c1cc(C2CCNCC2)[nH][nH]1	nt	-1.0
CNCC(O)c1cccc(OC(=O)c2ccccc2C)c1 (stereo not given)	nt	-2.1
C[C@H]1CCC/C=C/C2C[C@H](O)CC2[C@H](O)/C=C/C(=O)O1 (stereo not given in full)	i	-0.3
O=C(Cn1cnc2ccccc2c1=O)NCC(=O)N1CCC2(CC1)OCCO2	nt	3.2
O=C(COc1ccc(Br)cc1)N1CCN(Cc2ccncc2)CC1	nt	0.0
COC(=O)C(O)(c1cn(C)c2ccccc12)C(F)(F)F (stereo not given)	nt	-1.6
Cc1cc(C)n2nc(SC(C)C(=O)N3CCC4(CC3)OCCO4)nc2n1 (stereo not given)	nt	13
CC(=O)Nc1cc(C(=O)N2CCC3(CC2)OCCO3)ccc1S(=O)(=O)c1ccc(C)cc1	nt	2.1
Nc1ccnn1C1CCNCC1	i	0.2
CCOCC(=O)NC1CCSC1=O (stereo not given)	i	-1.5
OC(CNC1CCCCC1)c1ccccc1 (stereo not given)	i	3.8
c1ccc(C2CC3CC(c4ccco4)N2O3)cc1 (stereo not given)	i	0.7
COC(=O)COc1cc(C)cc2oc(=O)c3c(c12)CCCC3	nt	-2.7
Cc1ccccc1CS(=O)(=O)Cc1ccc(C(=O)N2CCC3(CC2)OCCO3)o1	nt	0.4
O=C(CCN1C(=O)COc2ccccc21)N1CCC2(CC1)OCCO2	nt	-0.7
COC(=O)c1cncn1C(C)c1ccccc1 (stereo not given)	i	-0.2
N=c1c[n+](CC23CC4CC(CC(C4)C2)C3)[n-]o1	nt	-1.1
c1ccc2c(c1)[nH]c1cnccc12	i	-0.6
c1cc2n(c1)-c1c(ccc3c1OCO3)CNC2c1ccc2c(c1)OCO2 (stereo not given)	nt	1.3
CC(N)Cc1c[nH]c2cc3c(cc12)OCCO3 (stereo not given)	nt	2.6
COc1ccccc1CN1CCN(C(=O)Cc2ccccc2)CC1	i	3.3
O=C(Cn1ncc2c3ccccc3n(Cc3ccc(F)cc3)c2c1=O)N1CCC2(CC1)OCCO2	i	11
COc1ccc(-c2nc(CSCC(=O)N3CCC4(CC3)OCCO4)c(C)o2)cc1OC	nt	-2.2
O=C(Cn1ncc2ccsc2c1=O)N1CCC2(CC1)OCCO2	nt	1.3
O=C1C2CCCN2C(c2cccc(Cl)c2)N1c1ccccn1 (stereo not given)	nt	-0.8
Cc1nc2cc(C(=O)N3CCC4(CC3)OCCO4)ccc2n1-c1cccc(F)c1	nt	-1.8
O=C(O)C1(c2ccc(Cl)cc2)CCC1	i	-0.9
C#CCN1C(=O)C2(C(C#N)=C(N)OC(C)=C2C(=O)OCc2ccccc2)c2ccccc21 (stereo not given)	nt	4.9
COCCn1cc(C(=O)N2CCC3(CC2)OCCO3)c2c3ccccc3n(C)c2c1=O	nt	1.3
COc1ccc(N2CCN(C(CNC(=O)Oc3ccccc3)c3cccnc3)CC2)cc1 (stereo not given)	nt	0.0
C(=NC12CN3CN(CN(C3)C1)C2)c1cccnc1	nt	-1.3
O=C1C2CCCN2C(c2ccccc2)N1c1ccccn1 (stereo not given)	nt	-0.5
CCOC(=O)C1SC2(C(F)F)CC1(O)c1c(c(OC)c3occc3c1OC)O2 (stereo not given)	i	-2.2
O=c1c2ccccc2nc(N2CCCC2)n1-c1ccc(Cl)cc1	nt	-0.2

Not all compounds are listed; the hit share may differ from the screen's.
